Screening data as filed in PubChem BioAssay.
NPYLR7 ag – agonists of mosquito NPYLR7 receptor, primary screen, cell-based, Aedes aegypti, calcium fluorescence, mosquito biting behavior. activation, % at 10 µM. HEK293T NPYLR7/Galpha15, GCaMP6s calcium fluorescence. Aedes aegypti neuropeptide Y-like receptor 7 (NPYLR7). 0.15% of 270,000 active; in the data active means activation above about 40%;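 further: 0% = vehicle and 100% = reference agonist at the receptor; some compounds past the cut are filed as inactive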
NPYLR7 ag max-min – also measured in NPYLR7 ag; calls as there; activation, %; measured here: Max-Min RFU normalised activation; some inactives read as strong as hits;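 span of the calcium signal over five minutes; 0% = vehicle and 100% = native peptide agonist; compound fluorescence can raise it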
The depositor's hits bear a star. A portion of the library, so the mix of outcomes need not match the whole.

SMILES,NPYLR7 ag,NPYLR7 ag max-min
C=CCOCC(O)CN(Cc1nc2scc(-c3ccccc3F)c2c(=O)[nH]1)Cc1ccco1 (stereo unspecified),-0.5,2.5
O=C1NCC(C(=O)N(Cc2cccc(Br)c2)C2CC2)N1 (stereo unspecified),1.2,-11.9
CC(=O)Nc1cc(C)nn1-c1nc(C)c(C)c(=O)[nH]1,3.3,1.0
Cc1noc(-c2ccccc2Cl)c1C(=O)NCCCN1CCOCC1,2.3,3.3
CN(CCC(F)(F)F)Cc1cc(C(C)(C)C)n[nH]1,-4.6,-4.9
CCn1cnc2cc(NCc3ccncc3)ccc21,0.0,-1.3
NC(=O)CSc1nnc(Cn2c(=O)sc3ccccc32)n1CCc1ccccc1,2.5,3.2
Cc1nc(CCNC(=O)c2coc(CN3CCN(c4ccccc4F)CC3)n2)sc1C,-5.1,-7.0
COCc1nc(-c2cccc(CN3CCN(C(=O)C4CC(=O)N(Cc5ccccc5)C4)CC3)c2)no1 (stereo unspecified),1.7,11.6
CN1CCCC2(CCN(C(=O)CCn3cnc4ccccc4c3=O)C2)C1=O (stereo unspecified),8.2,-0.5
CCCCC(=O)Nc1nc(-c2ccccc2)c(C)s1,6.3,6.1
Cc1nnsc1C(=O)N1CCCC(CCc2ccc(F)cc2)C1 (stereo unspecified),6.8,3.5
Cn1ccnc1-c1nccn1-c1ccc2c(c1)CCC2,-0.5,-11.6
CC(C)c1nc2c(c(=O)c3ccccc3n2C)c(=O)n1-c1ccccc1,2.6,-0.9
Cc1ccc(C(C)C)c(OCC(=O)N2CCC(C(=O)O)CC2)c1,-26.0,-27.1
Cc1sc(-n2cccc2)c(C(=O)N2CCC3(CC2)CNC(=O)C3)c1C,-2.6,-4.8
CC1=C(C(=O)N2CCC(C3CCN(CCc4ccccc4)C3)CC2)OCCO1 (stereo unspecified),17.8,5.1
COCCN1CCCC(O)(CN2CCN(c3nc(C)cc(C)n3)CC2)C1=O (stereo unspecified),7.7,4.6
CC1CN(Cc2ccc(CNS(=O)(=O)c3cccs3)cc2)CC(C)O1 (stereo unspecified),11.2,5.2
COc1ccc(-c2nnc(C(C)OC(=O)C3C4CC5CC(C4)CC3C5)o2)cc1 (stereo unspecified),7.6,4.4
CC(C)c1ccc(CC(=O)N2CCC2(C)C(=O)NS(=O)(=O)c2cccc(F)c2)cc1 (stereo unspecified),8.8,6.5
C=CCN(CC(=O)N1CCc2sccc2C1c1ccc(OC)cc1)C(=O)/C=C/c1ccccc1 (stereo unspecified),-9.8,-2.7
O=C(NCCc1c[nH]c2ccc(OCc3ccccc3)cc12)c1ccco1,2.3,0.7
Cc1nn(-c2cccc(Cl)c2)c(Oc2ccccc2)c1CN(CC(C)C)CC(O)Cc1ccccc1 (stereo unspecified),4.0,5.4
NC(=O)NC(=O)CCSCc1csc(Cc2ccc(Cl)cc2)n1,1.1,18.0
Cc1ccc(NC(=O)N2CCC3(CC2)SCCN3C(=O)COc2ccccc2)cc1C,-0.5,2.3
CN(Cc1ncc[nH]1)C(=O)c1cc2c(s1)CCCCC2,-5.5,-5.0
O=C(Cc1ccccc1)NCCC(=O)N1CCOc2cc(F)ccc21,3.5,-2.4
O=C(C1CCN(c2cc(F)cc(F)c2)C1=O)N1CCN2CCCCC2C1 (stereo unspecified),3.7,3.0
Cc1ccc(C2CCCCC2OC(=O)CCS(=O)(=O)C2CCCC2)cc1 (stereo unspecified),5.9,15.0
CCc1cccc(Oc2ccc(F)cc2/C=C/C(=O)O)c1,3.4,4.9
CCc1cn[nH]c1C1CCCN(C(=O)c2cc(C(C)C)n3ncnc3n2)C1 (stereo unspecified),4.3,2.5
CC(=Nc1cccnc1)C(C#N)C#N,-4.9,-7.6
Cc1nc(CN2CCN(c3nc4nonc4nc3NCc3ccccc3)CC2)cs1,10.8,3.9
CCCn1ncc(CN2CCCC(N(C)CCc3ccc(OC)c(OC)c3)C2)c1C (stereo unspecified),11.4,5.7
Cc1ccc2nc(CSc3nnnn3C)cc(=O)n2c1,3.1,3.9
O=C(c1cnc2ccccn2c1=O)N1CC(=O)N(C2CCCCC2)CC(OCc2ccccc2)C1 (stereo unspecified),-4.3,-5.9
CCC(=O)N1CCN(C(=O)c2ccccc2)CC1,-4.4,-16.9
CCN1CCN(C(=O)c2cn(CCOC)cc3c(=O)n(-c4ccccc4)nc2-3)CC1,-3.1,-9.5
CCCCS(=O)(=O)N(CC)C(C)c1cccc(O)c1 (stereo unspecified),4.4,2.1

Part of the list above in another layout.
Sequence of screens – NPYLR7 ag	NPYLR7 ag max-min
- Cc1noc(-c2ccccc2Cl)c1C(=O)NCCCN1CCOCC1
    2.3	3.3
- CN(CCC(F)(F)F)Cc1cc(C(C)(C)C)n[nH]1
    -4.6	-4.9
- CCn1cnc2cc(NCc3ccncc3)ccc21
    0.0	-1.3
- NC(=O)CSc1nnc(Cn2c(=O)sc3ccccc32)n1CCc1ccccc1
    2.5	3.2
- Cc1nc(CCNC(=O)c2coc(CN3CCN(c4ccccc4F)CC3)n2)sc1C
    -5.1	-7.0
- COCc1nc(-c2cccc(CN3CCN(C(=O)C4CC(=O)N(Cc5ccccc5)C4)CC3)c2)no1 (stereo unspecified)
    1.7	11.6

(further entries)
SMILES,NPYLR7 ag,NPYLR7 ag max-min
NS(=O)(=O)c1ccc(NNC(=S)Nc2ccc(SC(F)F)cc2)cc1,1.8,-1.5
O=C(NCCC1CCCCO1)c1cc(COc2ccc3c(c2)OCO3)[nH]n1 (stereo unspecified),2.8,2.5
N[C@H](CCCCNC(=O)c1cccnc1)C(=O)N1CCC(O)(c2ccc(Cl)cc2)CC1,8.3,11.2
CCC(Cc1ccc(C)cc1)NC(=O)N1CCCC(CC(N)=O)C1 (stereo unspecified),4.3,3.0
CC1CCc2c(sc3nc(C(C)N4CCN(C(=O)C5COc6ccccc6O5)CC4)[nH]c(=O)c23)C1 (stereo unspecified),0.6,-1.3
Cc1ccc(CN(Cc2ccco2)CC(O)COc2ccccc2C)s1 (stereo unspecified),27.5,35.7
CCOC(=O)C(Cc1ccccc1)N(Cc1cc(Br)ccc1OCC)C(=O)c1cccc(C(F)(F)F)c1 (stereo unspecified),-1.4,-5.6
COc1ccc(NC(=O)C2=C(C)NC(=O)NC2c2cccc(Cl)c2)cc1 (stereo unspecified),0.4,-1.3
CCOc1ncccc1CN1CCC(C(=O)NCCCc2ccccc2)CC1,1.7,0.1
CC(=O)c1nn(-c2ccc(Cl)cc2)nc1N,-6.9,-7.6
Cc1cccc(CS(=O)(=O)c2ncc(CN(C(=O)CC(C)C)C(C)C)n2CC(C)C)c1,7.6,-0.7
Cc1nn(CCNC(=O)c2ccc(Cl)cn2)c(C)c1Cl,4.6,3.5
O=C1C2CC=CCC2C(=O)N1CN1CCCC1c1cccs1 (stereo unspecified),1.4,9.1
O=C(Cn1cnc2ccccc2c1=O)N1CCC2(CCCO2)CC1,8.8,5.5
Cn1ncc2c(NCCN3CCCCC3CO)nc(C(C)(C)C)nc21 (stereo unspecified),8.7,7.9
Cc1ccc(N2C(=O)CC(NCCc3cccc(F)c3)C2=O)cc1 (stereo unspecified),-0.8,-9.4
NCc1cc(-c2ccc(F)cc2)on1,2.0,0.2
CCOC(=O)c1ccc(NC(=O)CSc2cn(CC(=O)N3CCCC3)c3ccccc23)cc1,-6.0,-11.4
Cc1cc(C)n2nc(SCC(=O)Nc3ccc(O)cc3)nc2n1,-0.7,-5.1
Cc1nn(-c2ccccc2)c(Cl)c1CN1c2ccccc2C[C@H]1C(N)=O,-9.1,-10.2
CC(c1ccc(-c2ccnc(N)c2)cc1)N1CCCCC1 (stereo unspecified),2.7,0.4
Cc1noc(C)c1NC(=O)NCc1ccc(Br)cc1,5.4,1.4
COc1ccc2[nH]c3c(c2c1)CCN(C(=O)COCc1ccccc1)C3COCc1ccccc1 (stereo unspecified),7.0,-4.7
CS(=O)(=O)NCCN1CCN(c2ccc(C(=O)NOCc3ccccc3)cn2)CC1,3.5,2.0
O=[N+]([O-])c1ccc(-c2nc(C=Nc3cccnc3Cl)c(O)o2)cc1,2.1,-4.1
O=C(Nc1ccccc1)C1CCN(C(=O)C2COc3ccccc3C2)CC1 (stereo unspecified),-3.4,-4.1
Fc1ccc(-c2nnn(CCCc3nn4c(C5CC5)nnc4s3)n2)cc1,9.3,3.0
COCCCNC(=O)C(NC(=O)c1cccc(C)c1)C1CCN(C(=O)c2ccccc2F)CC1 (stereo unspecified),-2.7,3.8
CCCc1cc(C2CCCN2C(=O)Nc2ccc(CC)cc2)no1 (stereo unspecified),9.4,8.6
CC(C)c1nc2ccc(F)cc2c2c1C(=O)N(CCCn1cccn1)C2=O,-2.6,-8.9
COCC(=O)N1CCSC12C(=O)N(Cc1c(F)cccc1F)c1ccc(C)cc12 (stereo unspecified),7.0,4.9
O=C(NCc1ccncc1)c1csc(CSc2nnc(Cc3ccccc3)n2-c2cccc(C(F)(F)F)c2)n1,8.4,19.7

Structures shown so far containing a COOH group (2):
SMILES,NPYLR7 ag,NPYLR7 ag max-min
Cc1ccc(C(C)C)c(OCC(=O)N2CCC(C(=O)O)CC2)c1,-26.0,-27.1
CCc1cccc(Oc2ccc(F)cc2/C=C/C(=O)O)c1,3.4,4.9

The list continues.
SMILES,NPYLR7 ag,NPYLR7 ag max-min
COC(=O)c1cc(Br)ccc1S(=O)(=O)Nc1cc(OC)ccc1OC,7.2,6.7
CC(C)n1cc(C(=O)N2CCN(CCc3ccccc3)CC2)c2nn(-c3ccccc3)c(=O)c-2c1,-5.3,-6.4
O=C(NC1CCCc2ccccc21)c1ccccc1N1CCC(NC(=O)C2CCCCC2)CC1 (stereo unspecified),17.3,24.0
Cc1cccc(-c2n[nH]c(=S)n2CCC(=O)NC(C)c2ccccc2Br)c1 (stereo unspecified),-7.5,-9.1
COc1cc(CNc2nccnc2-c2cc(OC)c(OC)c(OC)c2)cc(OC)c1OC,-16.4,-19.1
O=C1c2ccccc2C(=O)N1N=Cc1c2ccccc2cc2ccccc12,-1.1,-4.1
CCc1ccc(NC(=O)C(=O)NCCC2CCCCN2S(=O)(=O)c2ccc(OC)cc2)cc1 (stereo unspecified),9.0,1.9
CCn1cc(CN2CCCC(CNC(=O)C3(N)CCCC3)C2)cn1 (stereo unspecified),2.4,0.3
COc1cccc2c(C)cc(-c3ccn[nH]3)nc12,8.1,4.9
Cc1nnc(CSc2nc3cc(F)c(F)cc3[nH]2)o1,4.7,1.3
Cn1c(=O)[nH]c(=O)c2c1nc1n(-c3ccccc3)c(-c3ccc(F)cc3)cn21,0.4,2.7
CCC(C)N(Cc1cccc(OS(=O)(=O)c2ccc(OC)cc2)c1)C(C)=O (stereo unspecified),6.8,16.8
COc1ccc(C)cc1-n1nnnc1SCc1cn2cccc(C)c2n1,-9.8,-11.8
CC(C)NC(=O)C(C)ONC(=O)Cc1ccc2ccccc2c1 (stereo unspecified),1.7,-1.6
O=C(NCc1ccccn1)N1CC=C(c2ccccc2)CC1,-8.3,-9.3
CN(C)c1cccc(N=C2C(=O)Nc3ccc([N+](=O)[O-])cc32)c1,-0.9,-1.2
CCOC(=O)c1oc2cc(O)ccc2c(=O)c1-c1ccc(Br)cc1,0.7,0.8
Cn1c(=O)oc2cc(NC(=O)c3cc(-c4cccc(Cl)c4)no3)ccc21,-1.8,331.2
CC(NS(=O)(=O)c1ccc(F)cc1)C(=O)Nc1ccc(N2CCCC2)nc1 (stereo unspecified),3.3,2.9
CCN(C(=O)Cn1c(=O)c(C#N)c2n(c1=O)CCC2)C1CCS(=O)(=O)C1 (stereo unspecified),3.3,2.0
COc1ccc(N2CCN(C(=O)c3ccccc3Cl)C(C)C2=O)cc1OC (stereo unspecified),-7.9,-0.1
O=C(OC1CCSCC1)c1cc([N+](=O)[O-])cc([N+](=O)[O-])c1,2.9,2.1
Nc1nn(S(=O)(=O)c2ccccc2)cc1-c1cccc([N+](=O)[O-])c1,0.9,0.7
C=CCn1c(CN2C[C@@H](N)C[C@H]2C(=O)NC)nc2ccccc21,21.7,13.3
OCc1cccc(-c2nc[nH]c2-c2ccccc2)c1,-1.0,-3.3
COc1c(C)cc(C(O)c2ncc(-c3cccc4ccccc34)[nH]2)cc1C (stereo unspecified),3.2,-0.4
C=C(NN=c1sc2ccccc2n1C)c1ccc2c(c1)OCCO2,14.7,11.3
CC(C)C(=O)Nc1ccc2oc(-c3ccc(N(C)C)cc3)nc2c1,-3.4,-1.7
Cc1cc(C)n(C2CN(C(=O)c3ccc(C#CC(C)(C)O)o3)C2)n1,2.3,0.5
O=C(COc1coc(CN2CCN(c3ccccc3)CC2)cc1=O)NCC1CCCO1 (stereo unspecified),-0.4,-1.5
CC(C)C(=O)N(Cc1cc(Cl)ccc1OS(=O)(=O)c1ccc(F)cc1)C1CC1,19.1,15.1
COc1cccc(CN(C)S(=O)(=O)NC(C)c2ccccc2C)c1 (stereo unspecified),-0.3,-2.7
C=CCN(Cc1ccc(SC)cc1)C(=O)C1CCOC1 (stereo unspecified),-3.5,-4.4
COc1ccc2c(COC(=O)COc3ccc4c5c(c(=O)oc4c3)CCC5)cc(=O)oc2c1,2.2,15.6
O[C@@H]1CN(Cc2cccc3c2OCO3)CC[C@H]1c1ccc(F)cc1,-2.0,-3.3
